Compound activity deposited in PubChem BioAssay by several laboratories.
Rce1 inhib: inhibitors of yeast Ras-converting enzyme; yeast membranes, quenched prenylated peptide cleavage fluorescence; calls only; 290,000 compounds, 0.27% hits; AID 2563;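 active means fall in fluorescence gain of 50% or more versus controls, with final raw signal at or below 3038400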;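 further: plate controls were neutral control wells for no effect and wells lacking membranes for full effect; tested at 10 µM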
PABP FP inh: PABP-poly(A) binding inhibition. PABP-poly(A) RNA binding, fluorescence polarization. inhibition, % at 35 µM. 290,000 compounds, 1% hits;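 active means 50% or more with normal probe brightness, or confirmed in later tests; about a fifth of its hits are not listed in these tables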;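 further: calls also rest on retests at 20 µM and on dose response follow-up; controls were probe without protein and protein plus probe with vehicle; some compounds called inactive have numbers as strong as hits; many hits fall short of the cut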
Target sequence (P11940 whole entry, looked up): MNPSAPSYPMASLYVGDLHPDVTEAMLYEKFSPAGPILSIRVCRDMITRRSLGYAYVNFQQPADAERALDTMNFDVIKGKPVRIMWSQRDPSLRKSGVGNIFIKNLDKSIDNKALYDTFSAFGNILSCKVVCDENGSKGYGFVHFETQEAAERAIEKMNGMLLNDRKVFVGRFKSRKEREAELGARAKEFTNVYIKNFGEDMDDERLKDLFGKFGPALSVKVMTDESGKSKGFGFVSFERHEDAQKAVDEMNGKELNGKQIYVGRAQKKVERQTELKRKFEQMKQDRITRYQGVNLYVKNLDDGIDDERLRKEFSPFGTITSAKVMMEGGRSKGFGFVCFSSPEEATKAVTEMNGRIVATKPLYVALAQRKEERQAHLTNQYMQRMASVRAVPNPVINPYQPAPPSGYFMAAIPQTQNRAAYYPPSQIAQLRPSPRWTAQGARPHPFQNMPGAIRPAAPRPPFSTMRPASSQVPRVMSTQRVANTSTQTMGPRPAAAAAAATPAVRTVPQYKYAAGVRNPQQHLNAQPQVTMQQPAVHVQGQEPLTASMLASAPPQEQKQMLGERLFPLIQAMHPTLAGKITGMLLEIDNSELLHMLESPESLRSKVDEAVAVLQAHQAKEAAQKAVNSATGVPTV
Yeast UUG start: modulators of start codon recognition fidelity in yeast; S. cerevisiae UUG-firefly luciferase reporter, luminescence/redox ratio; activity score, % at 18.7 µM; 350,000 compounds, 0.13% hits; AID 602363;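 active means replicate mean at a twofold rise or more, about +100% in these data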;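 further: firefly luciferase made from a UUG start codon reports start codon fidelity; reporter light over untreated wells divided by growth signal over untreated wells; some hits fall short of that in this replicate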
eIF4H FP inh: inhibitors of RNA binding by human eIF4H; 290,000 compounds, 0.94% hits; inhibition, % at 35 µM; Q15056; eIF4H fluorescence polarization binding assay; AID 2012;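 active means 50% or more with normal probe brightness, or confirmed in later tests; about a fifth of its hits are not listed in these tables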;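 further: calls also rest on retests at 20 µM and on dose response follow-up; 0% = protein and probe with vehicle and 100% = probe without protein; strong numbers were not always called active; many hits fall short of the cut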
Env fusion inh: inhibitors of HIV Env-mediated cell fusion; HeLa-JRFL Env/CEM21 cell fusion, luciferase; inhibition, % at 12.3 µM; 360,000 compounds, 1.1% hits; AID 651610;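 active means mean replicate inhibition score of at least 50 and every replicate individually at or above 50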;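 further: 0% = plate neutral controls and 100% = maraviroc near 300 nM; one replicate is shown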
CSC inhib: cancer stem cell inhibition. cancer stem cell-like cells viability, luminescence. inhibition, % at 7.5 µM. 300,000 compounds, 1.1% hits;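 active means mean at 75% or more and at least half the replicates too; tested in HMLE shEcad cells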;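 further: 0% = median of negative and 100% = median of positive control wells; the first replicate is given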
MT1-MMP act inh: MT1-MMP (human) activation inhibition. 360,000 compounds, 0.061% hits. HT1080 RFP-PRO-GFP cells, GFP/RFP ratio fluorescence, overnight; percent of plate control window, DMSO zero. P50281. GFP/RFP ratio change, % at 20 µM. AID 651647;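 active means GFP/RFP ratio change of at least 30% with cell ATP level not reduced by more than half and red fluorescence within 50% of control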; further: strong numbers were not always called active
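Assay system: RFP-PRO-GFP reporter HT1080 cells; read-out basis: GFP/RFP fluorescence ratio; benchmarks: DMSO wells and RFP-L50D-GFP cells; doses: 20 µM single dose, 1% DMSO; schedule: overnight cell settling, then overnight compound exposure, 37 °C, 5% CO2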
eIF4H FP inh retest: second read-out of eIF4H FP inh, no call of its own (marks repeat the call); inhibition, %; compound at 20 µM; confirmation average;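 mean of two retest wells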
PABP FP inh retest: recorded beside PABP FP inh, whose call it bears; inhibition, %; compound at 20 µM; confirmation repeats;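 mean of two retest wells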
MT1-MMP act inh RFP: also measured in MT1-MMP act inh; calls as there; RFP signal change, %; measured here: RFP expression control read;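 0 = vehicle wells; hits needed this value within 50% of zero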
* marks the source's active call; other numbers are inactive results; i = inactive; · = no result given.

SMILES | Rce1 inhib | PABP FP inh | Yeast UUG start | eIF4H FP inh | Env fusion inh | CSC inhib | MT1-MMP act inh | MT1-MMP act inh RFP | others
Cc1ccc(-n2ncc3c(N4CCC5(CC4)OCCO5)ncnc32)c(C)c1 | i | 0 | 3 | -3 | 16 | -10 | 4 | -8
CNC(=O)c1nnsc1S(=O)(=O)c1ccc(Cl)cc1 | i | 11 | -34 | -2 | 13 | · | -6 | -12
Cc1cccc(NC(=O)c2ccc(COc3ccccc3[N+](=O)[O-])o2)n1 | i | -2 | · | 7 | -5 | 54 | 3 | 2
COc1ccccc1CNC(=O)COC(=O)c1ccccn1 | i | · | -15 | · | -6 | 2 | -1 | 2
O=S(=O)(NCCc1cn2ccccc2n1)c1ccc(-c2ccccc2)cc1 | i | -6 | -7 | 1 | -2 | 7 | -1 | -3
CSc1ccc(CN2CCC2(C)C(=O)Nc2ccc(C)c(O)c2)cc1 (stereo not drawn) | · | · | -10 | · | -15 | · | 1 | -9
COc1ccccc1N(C(=O)CN1C(=O)c2ccccc2S1(=O)=O)C(C(=O)NCC1CCCO1)c1ccc(F)cc1 (stereo not drawn) | i | -1 | 12 | -5 | 3 | -11 | 0 | 2
O=C(CNC(=O)c1ccc(Br)cc1)NCCc1nc2ccccc2[nH]1 | i | -1 | 0 | 0 | 13 | · | 2 | -2
Cc1ccc2nsnc2c1N | i | -1 | · | 1 | -14 | -20 | -1 | 9
O=C1CC(c2cccs2)Cc2nc(NC(=O)C3CC3)ncc21 (stereo not drawn) | · | -11 | 4 | -7 | 6 | -8 | -3 | 0
COc1ccccc1NC(=O)c1ccc(NC(=O)CSc2nc(N)cc(=O)[nH]2)cc1 | · | · | 0 | · | 11 | · | 0 | 3
COc1ccc(OC)c(Nc2cc(C)nc3ccccc23)c1 | i | -1 | -26 | 4 | -34 | 34 | -4 | 1
COc1ccccc1CNc1nc(NCCNC(C)=O)c2sccc2n1 | · | · | -17 | · | -18 | · | 3 | 11
CCOc1ccc(-c2cc(C(=O)Nc3cc(OC)c(OC)c(OC)c3)[nH]n2)c(C)c1 | · | · | -28 | · | 3 | · | 0 | 0
CCc1ccc(Nc2ccc(C(=O)O)cc2[N+](=O)[O-])cc1 | i | 18 | · | -6 | 0 | -2 | 4 | 1
O=C(c1cc2c(s1)CCCC2)N1CCN(C(=O)C2CCCO2)CC1 (stereo not drawn) | i | 1 | -4 | -4 | -10 | 6 | 0 | 1
C#Cc1ccc([C@@H]2C=C(C(=O)N3CCN(Cc4ccccc4)CC3)O[C@H](OCCCCO)C2)cc1 | i | 3 | -3 | 15 | · | 2 | 5 | -18
CC[C@@H]1C=C(C(=O)O)[C@H](c2ccc(Br)cc2)N1S(=O)(=O)c1ccc(C)cc1 | · | · | 24 | · | -18 | · | 2 | 2
COc1cccc(NS(=O)(=O)c2csc(C(N)=O)c2)c1 | i | -8 | -21 | 10 | -2 | 0 | 3 | -6
O=c1c(-c2n[nH]c(=S)n2-c2ccccc2)cccn1Cc1cccc(Cl)c1 | i | -13 | · | 7 | -8 | -25 | 4 | 0
COc1cc2c(cc1OC)/C(=C/C(=O)c1ccc(NC(C)=O)cc1)NCC2 | i | 3 | 2 | 2 | -4 | -12 | 1 | 3
COc1ccccc1N(C)S(=O)(=O)c1ccc(C(=O)OCC(=O)NCc2ccco2)cc1 | i | 8 | 1 | -9 | -15 | 9 | 2 | 2
O=S1(=O)CC(N2CCCC2)CN1Cc1ccc(F)cc1 (stereo not drawn) | · | · | -24 | · | 7 | · | 0 | 8
O=C(Nc1cccc(C(F)(F)F)c1)C1Cc2c(-c3cccc(F)c3)ccnc2O1 (stereo not drawn) | · | · | -24 | · | 34 | · | 0 | -15
CNC(=O)Cn1ncc2c(C)n(Cc3ccc(C)cc3)c(C)c2c1=O | i | 5 | 1 | -4 | · | -3 | 6 | 1
O=C(Nc1nccs1)c1ccc(N2C(=O)C3CCCCC3C2=O)cc1 (stereo not drawn) | i | 11 | · | -7 | -23 | -10 | 5 | 4
O=c1c2ccccc2sc2nc(C3CCCCC3)n(Cc3ccco3)c(=O)c12 | i | 37 | -10 | 33 | -10 | · | -19 | -4
CC(C)(C)c1cc(CN(CCO)CCO)cc(C(C)(C)C)c1O | i | 4 | 0 | -2 | -24 | -7 | -4 | 1
CCOC(=O)C1=C(C)NC(=O)NC1c1ccc2c(c1)OCO2 (stereo not drawn) | i | -6 | -13 | 0 | · | -14 | -7 | -3
CC(Oc1ccc(F)cc1)C(=O)Nc1nc(-c2ccccn2)cs1 (stereo not drawn) | i | · | -40 | · | 44 | 36 | 0 | -6
O=C(COc1ccccc1[N+](=O)[O-])N/N=C/c1ccccn1 | i | -1 | · | 1 | 0 | 2 | 0 | 4
Nn1c(Cc2cccc3ccccc23)nnc1SCc1ccc(Cl)c(Cl)c1 | i | 2 | -31 | -2 | -15 | 15 | -1 | -2
Cc1cc(C)cc(NC(=O)C2CC(=O)n3ncnc3N2)c1 (stereo not drawn) | i | 2 | · | 2 | -6 | -3 | 2 | 1
S=C(Nc1ccc(Oc2ccccc2)cc1)NC1CCCCCC1 | i | -6 | -22 | 3 | -51 | 95* | -2 | -9
CC1CC(OC(=O)C2CCN(S(=O)(=O)c3ccc(F)cc3)CC2)C(=O)O1 (stereo not drawn) | · | · | 2 | · | -2 | · | 0 | 3
C(=N\c1nc2ccccc2n1CCN1CCOCC1)/c1cccs1 | i | -5 | -8 | -5 | · | -2 | -1 | 3
COc1ccc(OCCNS(=O)(=O)c2ccc3oc4ccccc4c3c2)cc1 | i | 1 | -10 | 0 | -1 | -9 | -5 | -4
CSc1nsc(SC)c1-c1ccc(Cl)cc1 | · | · | -11 | · | 10 | · | -1 | 1
CCOC(=O)/C(=C/c1ccco1)NC(=O)c1ccc(Br)o1 | i | -8 | · | 21 | 20 | -4 | -4 | 5
CCN(CC)c1ccc(C=C2C(=O)OC3(CCCC3)OC2=O)cc1 | i | 1 | -8 | -2 | -8 | -22 | -1 | 5
CC1(C)CC(=O)C2=C(C1)NC(=O)NC2c1ccccc1 (stereo not drawn) | i | 3 | · | 4 | -8 | -11 | 3 | 1
O=C(N/N=C1/CCCc2ccccc21)c1cc([N+](=O)[O-])cc([N+](=O)[O-])c1 | i | -10 | · | -5 | -1 | -10 | · | ·
COc1ccc(Cl)cc1NC(=O)c1noc2c1CCCC2 | i | -12 | -5 | -6 | 15 | -10 | -3 | 1
CCCCn1c(N)c(N(CC(C)C)C(=O)CSCc2ccc(Cl)c(Cl)c2)c(=O)[nH]c1=O | i | · | 44 | · | -4 | -4 | -10 | -8
O=C(COC(=O)CNC(=O)c1ccccc1)Nc1ccc2c(c1)OCO2 | i | 7 | · | 9 | 10 | -4 | -1 | 3
Cc1ccc(/C=c2/sc3n(c2=O)CCCN=3)o1 | i | -8 | 9 | 79 | -288 | -7 | -6 | 2 | eIF4H FP inh retest=2;PABP FP inh retest=16
CC(C)CC1=NN(C(=O)c2cccnc2)C(O)(C(F)(F)F)C1 (stereo not drawn) | i | -14 | · | -1 | · | -1 | 2 | 3
O=C(NNC(=O)c1ccc(Cn2cccn2)o1)NC12CC3CC(CC(C3)C1)C2 | i | 10 | 12 | -5 | -8 | · | 1 | 5
O=S(=O)(c1ccc(S(=O)(=O)n2cnc3ccccc32)cc1)N1CCCCCC1 | i | 15 | -15 | -8 | -59 | 4 | 3 | 3
Cn1c2c(c(=O)n(C)c1=O)C(NC(=O)C(C)(C)C)(C(F)(F)F)C(=O)N2 (stereo not drawn) | i | 0 | -10 | -2 | 0 | -8 | 5 | 2

(cont.)
SMILES | Rce1 inhib | PABP FP inh | Yeast UUG start | eIF4H FP inh | Env fusion inh | CSC inhib | MT1-MMP act inh | MT1-MMP act inh RFP | others
CCC(C)NC(=O)COC(=O)c1cccnc1Nc1ccccc1F (stereo not drawn) | i | 1 | -43 | 6 | -5 | 3 | -2 | 2
CCCc1[nH]nc2c1C(c1ccc(OC)cc1OC)C(C#N)=C(N)O2 (stereo not drawn) | i | 9 | -2 | -3 | -91 | -14 | -2 | 0
CCOc1ccc(OCc2cccc(C(=O)N3CCCCCC3)c2)cc1 | · | 10 | · | 1 | 13 | -20 | -3 | -5
CCOC(=O)C1CCCN(C(=S)NC2CCCCC2)C1 (stereo not drawn) | i | -6 | -24 | 3 | -4 | -3 | 3 | 0
CC(=O)c1ccc(N2CCN(C(=O)C(=O)c3cn(CC(=O)N4CCCCCC4)c4ccccc34)CC2)cc1 | i | 18 | -5 | -4 | 1 | -1 | -5 | -6
Cc1ccc(CNCC(=O)Nc2cccc(S(=O)(=O)NC3=NCCCCC3)c2)cc1 | i | -6 | · | 6 | -10 | -4 | -3 | -1
CCCC(=O)Nc1ccc2nc(SCC(=O)Nc3ccc(N4CCOCC4)c(Cl)c3)sc2c1 | i | 48 | -9 | 16 | · | 0 | -4 | -24
CCCn1c(CCC(=O)Nc2ccccc2Cc2ccccc2)nc2cc(S(=O)(=O)N3CCOCC3)ccc21 | i | -2 | · | -8 | · | -8 | 6 | 6
CCC(C)(C)n1nnnc1C(c1ccc(OC)c(OC)c1)N1CCN(c2ccc(OC)cc2)CC1 (stereo not drawn) | i | 16 | 1 | -7 | · | · | 1 | -3
CCSc1nnc(-c2ccc(S(=O)(=O)NCc3cccs3)cc2)o1 | i | 0 | -11 | 10 | · | -13 | -1 | -7

Entries above with fluorine, in the order listed:
SMILES | Rce1 inhib | PABP FP inh | Yeast UUG start | eIF4H FP inh | Env fusion inh | CSC inhib | MT1-MMP act inh | MT1-MMP act inh RFP | others
COc1ccccc1N(C(=O)CN1C(=O)c2ccccc2S1(=O)=O)C(C(=O)NCC1CCCO1)c1ccc(F)cc1 (stereo not drawn) | i | -1 | 12 | -5 | 3 | -11 | 0 | 2
O=S1(=O)CC(N2CCCC2)CN1Cc1ccc(F)cc1 (stereo not drawn) | · | · | -24 | · | 7 | · | 0 | 8
O=C(Nc1cccc(C(F)(F)F)c1)C1Cc2c(-c3cccc(F)c3)ccnc2O1 (stereo not drawn) | · | · | -24 | · | 34 | · | 0 | -15
CC(Oc1ccc(F)cc1)C(=O)Nc1nc(-c2ccccn2)cs1 (stereo not drawn) | i | · | -40 | · | 44 | 36 | 0 | -6
CC1CC(OC(=O)C2CCN(S(=O)(=O)c3ccc(F)cc3)CC2)C(=O)O1 (stereo not drawn) | · | · | 2 | · | -2 | · | 0 | 3
CC(C)CC1=NN(C(=O)c2cccnc2)C(O)(C(F)(F)F)C1 (stereo not drawn) | i | -14 | · | -1 | · | -1 | 2 | 3
Cn1c2c(c(=O)n(C)c1=O)C(NC(=O)C(C)(C)C)(C(F)(F)F)C(=O)N2 (stereo not drawn) | i | 0 | -10 | -2 | 0 | -8 | 5 | 2
CCC(C)NC(=O)COC(=O)c1cccnc1Nc1ccccc1F (stereo not drawn) | i | 1 | -43 | 6 | -5 | 3 | -2 | 2

Quoted at random: two compounds from above, in no set order.
SMILES | Rce1 inhib | PABP FP inh | Yeast UUG start | eIF4H FP inh | Env fusion inh | CSC inhib | MT1-MMP act inh | MT1-MMP act inh RFP | others
O=S(=O)(c1ccc(S(=O)(=O)n2cnc3ccccc32)cc1)N1CCCCCC1 | i | 15 | -15 | -8 | -59 | 4 | 3 | 3
Cc1cc(C)cc(NC(=O)C2CC(=O)n3ncnc3N2)c1 (stereo not drawn) | i | 2 | · | 2 | -6 | -3 | 2 | 1
